MgrA-DNA mod: alters Staphylococcus aureus MgrA binding to DNA; AID 602314; 84,000 tested, 0.13% active; inhibition, %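 (about 10 µg/mL by stock and volumes)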; fluorescence polarization;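 active means above 50% in either of two replicates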;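 further: 0% = protein plus DNA without compound and 100% = DNA alone without protein; higher means less MgrA bound to DNA so lower polarization; one replicate is shown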
S aureus helic: blocks Staphylococcus aureus DNA helicase; purified S. aureus helicase, fluorescence unwinding assay; about half of the hits fall short of the stated cut; inhibition, %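 (tested at about 80 µM)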; 120,000 tested, 0.05% active; AID 485395;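 active means both duplicates at 50% or more, or one of them with a favoured structure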;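 further: 0% = mean of negative control wells and 100% = mean of positive control wells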
Numbers without * were called inactive; x = not tested or not shown. An excerpt. The share of hits here may be higher or lower than overall.

Below each SMILES: MgrA-DNA mod | S aureus helic
OCc1cccn1-c1ccc(I)cc1
    3.4 | 16
CCN(CC)c1cccc(C(=O)O)n1
    -2.0 | -24
COc1ccc(CN=C(C)C2CCOC2=O)cc1 (stereo not drawn)
    -2.7 | x
Cc1ccc2nc(NCCC(=O)O)nc(-c3ccccc3)c2c1
    0.6 | 8
Brc1ccccc1[C@@H]1Nc2ccccc2[C@@H]2C=CC[C@@H]21
    1.1 | 15
O=Nc1c(-c2c(O)[nH]c3ccccc23)[nH]c2ccccc12
    -1.5 | x
CN(C)c1c[nH]c(=O)[nH]c1=O
    x | 5
Cc1cc(Nc2ccc(F)cc2)nc(SCc2c(Cl)cccc2Cl)n1
    3.5 | x
Cc1cc(C(=O)Cn2cnc3sccc3c2=O)c(C)n1CCc1ccc(Cl)cc1
    x | 6
Nc1nc(CSCC(=O)NCc2ccco2)nc(Nc2ccccc2)n1
    x | 1
Cc1sc2nc[nH]c(=O)c2c1-c1ccccc1
    x | -4
S=c1nc(-c2ccccc2)[nH]n1CN1CCc2ccccc2C1
    x | -5
CC1(C)Cc2c(c(=S)nc(-c3ccccc3)n2CCO)CO1
    6.4 | 12
CCc1ccc(-c2nc(CN3CCC(C(=O)NC(C)C)CC3)c(C)o2)cc1
    x | 10
COc1ccc2cc(-c3ccn[nH]3)ccc2c1
    -1.8 | x
O=C(Cc1ccsc1)OCC(=O)c1ccccc1
    -0.2 | -15
CCOc1ccccc1C1CC(=O)NC2=C1C(=O)CCC2 (stereo not drawn)
    x | -10
COc1ccc(C(=O)NC(C)C(c2cccs2)N2CCN(C)CC2)cc1OC (stereo not drawn)
    x | 7
CC1(C)CC(=O)c2sc(NC(=O)C3CC3)nc2C1
    -1.4 | x
O=C(CNC(=O)c1cccs1)NC1CCCC1
    x | 9
N#Cc1c(NC(=O)COCc2cc(-c3ccco3)on2)sc2c1CCCC2
    x | 21
CC(OC(=O)c1cccnc1)C(=O)Nc1cc(Cl)cc(Cl)c1 (stereo not drawn)
    -0.1 | -16
Cc1ccc(C)n1-c1ccon1
    x | -6
O=C(O/N=C1\CCCc2[nH]c3ccccc3c21)c1c(Cl)cccc1Cl
    -1.0 | x
Clc1ccc(-c2csc3ncnc(Cl)c23)cc1
    x | 9
CC(C)Cc1ccc(C(C)NC(C)CC(N)=O)cc1 (stereo not drawn)
    x | -4
COc1nc(N2CCCC2)[nH]c(=O)n1
    x | 5
O=S(=O)(c1ccc2nc(-c3cccs3)c(-c3cccs3)nc2c1)N1CCOCC1
    x | 18
CCOc1ccc(CCN2CNc3c(-c4cccc(Cl)c4)c(C)nn3C2)cc1
    x | 23
CC12CC(C(C#N)=C(N)N1)c1ccccc1O2 (stereo not drawn)
    7.5 | 3
O=C1NC(=Nc2ccc(Cl)cc2)SC1Cc1cccc2ccccc12 (stereo not drawn)
    5.4 | x
COc1cc(CO)cc(Br)c1OCc1cccnc1
    2.2 | 18
CC12CN3CC(C)(CN(C1)C31C(=O)Nc3ccccc31)C2=O (stereo not drawn)
    -2.2 | x
COc1cccc(-c2cc(C(=O)N3CCN(C(=O)c4cc(OC)c(OC)c(OC)c4)CC3)[nH]n2)c1
    x | -29
COc1cccc(NC(=O)c2ccc(-c3cccc(Cl)c3C)o2)c1
    0.8 | 6
COc1ccccc1/C=N/NC(=O)CNc1ccccc1OC
    x | -4
COc1ccc(NC(=O)C2(N(C)C(=O)c3ccc(-n4cnnn4)cc3)CCCCC2)cc1
    x | 6
CCCCc1ccc(NC(=O)CSc2nc(C3CCCCC3)c(C#N)c(=O)[nH]2)c(C)c1
    9.1 | x
COC(=O)CN(C(C)=O)C(c1ccccc1)c1cc(Br)ccc1NC(=O)c1ccccc1Cl (stereo not drawn)
    x | 0
NC(CCO)c1cccc(C(F)(F)F)c1 (stereo not drawn)
    3.5 | x
COc1ccc(CN(C)C(=O)c2cccc(F)c2)c(OC)c1OC
    x | 5
c1ccc2oc(C3=NNC(=NCCN4CCOCC4)SC3)cc2c1
    x | 14
Nc1cc(N)nc(SCc2ccccc2C(F)(F)F)n1
    -0.5 | -1
COc1ccc(OCc2cc(=O)n3nc(C)sc3n2)cc1
    x | 6
CCCCNC(=O)c1ccc2c(=O)n(C3CCCC3)c(=S)[nH]c2c1
    x | 4
CCOC(=O)Nc1ccc2c(c1)N(C(=O)CN1CCOCC1)c1ccccc1CC2
    -0.1 | 7
Cc1ccc(-c2nnc(-c3ccc(NC(=O)C(C)C)cc3)o2)cc1
    0.1 | 14
COc1ccccc1OCCC(=O)O
    x | -20
CCOc1cc2[nH]c(=O)n(CCC(=O)NC3CCCC(C)C3C)c(=O)c2cc1OCC (stereo not drawn)
    x | 4
C=CCn1c(COc2ccc(CC)cc2)nnc1SCC(=O)c1cc2ccccc2o1
    x | 24
CC1=C(C(=O)OCCOc2ccccc2)C(c2ccc3c(c2)OCO3)NC(=O)N1C (stereo not drawn)
    -0.4 | x
O=C(c1c(F)cccc1F)N1CCN(c2ccc3nnc(-c4ccccc4)n3n2)CC1
    x | 2
Cc1ccc2nc(NC(C)C(=O)O)nc(-c3ccccc3)c2c1 (stereo not drawn)
    x | 1
COc1cccc(CNc2nn[nH]n2)c1OCc1ccc(Cl)cc1
    -1.1 | 8
O=C(CC1SC(=O)N(Cc2ccccc2)C1=O)Nc1nccs1 (stereo not drawn)
    x | 5
CCc1nnc2sc(NC(=O)c3ccco3)nn12
    2.0 | 3
CCCCC(=O)Nc1noc2ccccc12
    0.1 | 3
Oc1ccccc1C=Nc1cccnc1
    20 | x
COc1ccc(C=Nc2n[nH]c(Nc3ccccc3)c2-c2nnc3n2CCCCC3)cc1
    x | -3
CCc1cccc(CC)c1N(COC)C(=O)CSc1nc2ccccc2[nH]1
    x | -14

(cont.)
Below each SMILES: MgrA-DNA mod | S aureus helic
CS(=O)(=O)N(CC(=O)Nc1cccnc1)c1ccc(Cl)cc1
    -0.1 | 4
O=C1CC(N2CCN(c3ccc(O)cc3)CC2)C(=O)N1c1ccc(Cl)c(C(F)(F)F)c1 (stereo not drawn)
    x | 7
O=C(O)C1=Nc2cccc3cccc(c23)N1
    3.1 | 18
CSc1cc(-c2ccncc2)nc(-c2ccc(Cl)cc2)c1
    -0.4 | x
Fc1ccc(N=Cc2cccnc2)cc1F
    x | 4
CC1=CC(C)=N[N+]1(C)CC(O)COc1ccccc1 (stereo not drawn)
    x | 14
COc1cc(Cl)c(C(F)(F)F)cc1NC(=O)c1c(OC)cccc1OC
    -0.6 | x
Cc1ccc(N2C(=O)C3CN4CCCN4C3C2=O)cc1 (stereo not drawn)
    2.7 | -3
Cc1ccc(N=C2C(=O)N(CN(C)C)c3ccccc32)cc1
    x | 30
O=C1C=CC(=O)C(c2ccc(Cl)cc2)=C1
    34 | 5
COc1ccc(C2C(C(N)=O)C2(C#N)C#N)cc1 (stereo not drawn)
    -1.1 | 12
C=C(C)Cn1c(C(C)NC(=O)COC)nc2ccccc21 (stereo not drawn)
    x | -18
COc1ccc(-c2cc3n(n2)CCc2nc4ccccc4n2-3)cc1
    x | -3
CCOC(=O)N1CCC(NC(=O)c2snnc2C)CC1
    -0.9 | x
S=C(NCCc1ccc(Cl)cc1)NCc1ccco1
    0.9 | 14
Cc1cc(NC(=O)NC(=O)c2ccc(F)cc2)n[nH]1
    -0.6 | 0
Nc1nnc(CSc2cccc3cccnc23)o1
    4.2 | 4
O=C(c1cc2ccccc2o1)N1CC=C(c2ccccc2)CC1
    -2.2 | x
CNC(=O)CSc1c(-c2cccs2)[nH]c2ccccc12
    -1.2 | 3
CC(C)C(=O)Nc1csc(C(F)(F)F)c1-c1ccccc1
    -1.4 | x
COc1cc(N)ccc1-n1c(C)ccc1C
    7.7 | -20
COc1ccc(/C=C(\C#N)c2cccs2)c(OC)c1OC
    -1.4 | x
OC1(C(F)(F)F)CC(c2cccs2)=NO1 (stereo not drawn)
    -1.7 | x
COC(=O)c1ccc2c(=O)[nH]c(COC(=O)c3sc4nc5n(c(=O)c4c3C)CCC5)nc2c1
    x | -2
CN1CCN(C(=O)C(F)(F)C2(F)OC(F)(F)C(F)(F)C2(F)F)CC1 (stereo not drawn)
    4.9 | 2
COc1cc2c(cc1OC)C(c1ccccc1)CC(=O)N2 (stereo not drawn)
    2.7 | -10
COc1ccc(NC(=O)c2csc3c2CCCC3)cc1
    x | 1
CC(C)(C)C(=O)Nc1cccc(C(F)(F)F)c1
    -1.6 | x
COC(=O)C1=C(C)NC2=C(C(=O)CC(C)(C)C2)C1c1cnc[nH]1 (stereo not drawn)
    -2.8 | x
O=c1[nH]ccn1Cc1ccccc1
    -0.2 | x

Whole records as entered above. Order of values: MgrA-DNA mod, S aureus helic
Listed for CCN(CC)c1cccc(C(=O)O)n1 : -2.0, -24
Listed for O=C1NC(=Nc2ccc(Cl)cc2)SC1Cc1cccc2ccccc12 (stereo not drawn) : 5.4, x
Listed for CCc1cccc(CC)c1N(COC)C(=O)CSc1nc2ccccc2[nH]1 : x, -14
Listed for COc1cccc(CNc2nn[nH]n2)c1OCc1ccc(Cl)cc1 : -1.1, 8
Listed for O=C(CC1SC(=O)N(Cc2ccccc2)C1=O)Nc1nccs1 (stereo not drawn) : x, 5

Single entries from above.
MgrA-DNA mod, `COc1ccc(/C=C(\C#N)c2cccs2)c(OC)c1OC` : -1.4
MgrA-DNA mod, `COc1cc(N)ccc1-n1c(C)ccc1C` : 7.7
S aureus helic, `O=C1C=CC(=O)C(c2ccc(Cl)cc2)=C1` : 5
S aureus helic, `Nc1nnc(CSc2cccc3cccnc23)o1` : 4
MgrA-DNA mod, `CNC(=O)CSc1c(-c2cccs2)[nH]c2ccccc12` : -1.2

(listing goes on)
Structure | MgrA-DNA mod | S aureus helic
CCOc1ccc(C2c3c(oc4ccc(C)cc4c3=O)C(=O)N2CCN(CC)CC)cc1OC (stereo not drawn) | x | 7
NNC(=O)c1snnc1-c1ccccc1 | 2.8 | x
CSc1cccc(NC(=S)NC(C)(C)C)c1 | -2.5 | x
O=C1CCCN1CCC1CCN(C(=O)Nc2ccccc2)CC1 | -0.8 | 10
CC(Cn1c(C(C)C)nc2ccccc21)C(=O)O (stereo not drawn) | 0.4 | 13
COc1ccccc1OCCn1c(C2CC(=O)N(c3cccc(SC)c3)C2)nc2ccccc21 (stereo not drawn) | x | 8
CCc1ccc(S(=O)(=O)c2c(C(=O)c3ccccc3)cnc3cc4c(cc23)OCCO4)cc1 | -2.2 | 3
N=C(N)SCc1cn2ccccc2n1 | x | 3
Cc1oc2c(c1C(=O)NCc1ccccc1)C(=O)c1ccccc1C2=O | 2.0 | 2
CSC(=CC(=O)C(C)(C)C)SC | x | -5
COC(=O)c1c2c(nc3ccccc13)CCCC2 | 4.2 | -22
O=C(c1c(Cl)cccc1Cl)N1CCN(c2cccc3[nH]ccc23)CC1 | -2.9 | x
CC(=O)N1CCN(CCN2C(=O)C3C4c5ccccc5C(c5ccccc54)C3C2=O)CC1 (stereo not drawn) | -1.5 | 2
COc1ccc2cc(C(=O)OC(C)C)sc(=O)c2c1OC | x | -21
O=C(CSc1nc2ccccc2c(=O)n1Cc1ccco1)N(c1ccccc1)c1ccccc1 | 5.2 | 3
CCOC(=O)CSc1nc(N)c2c3c(sc2n1)CCC3 | x | -22
Cc1ccccc1-c1nc(NC(=O)CSc2ncnc3sc4c(c23)CCC(C)C4)ns1 (stereo not drawn) | 0.2 | 1
Cc1ccc(C(=O)CC(C(=O)O)n2ccc(C)n2)cc1 (stereo not drawn) | 1.3 | -4
CC1CCCCN1C(=O)CCS(=O)(=O)c1cccc2nonc12 (stereo not drawn) | -0.8 | 13
COc1ccccc1OCC(=O)Nc1cccc(C)n1 | -1.4 | 5
O=S1(=O)CCC(NC(=S)N2CCOCC2)C1 (stereo not drawn) | x | 0
CCc1ccc(OCc2nnc(SC(C)C(=O)OC)n2C)cc1 (stereo not drawn) | -1.8 | 1
COc1ccccc1OC(=O)Nc1ccccc1 | 0.6 | 17
O=C(NCc1nc(-c2ccc(C(F)(F)F)cc2)no1)c1ccccc1 | 0.5 | x
CN(C)CCNC(=O)c1ccc(/C=N/O)nc1 | x | 16
CCOC(=O)c1s/c(=N\C(=S)NC(=O)CN2C(=O)CCC2=O)n(C)c1C | x | 2
COc1ccccc1C(=O)NC(=O)CSc1nncn1C(C)C | x | 13
COC(=O)CCn1cnc(-c2ccccc2)c1-c1ccccc1 | 1.4 | 0
Cc1nn(-c2ccccc2)c2c1CC1(C(=O)c3ccccc3C1=O)C1CCCN21 (stereo not drawn) | x | 4
O=C1N=c2ccccc2=C1c1[nH]c(=S)n(-c2ccccc2)c1O | 2.6 | 0
Cc1cc(-c2ccc(C(C)C)c(S(=O)(=O)N3CCN(c4ccccc4F)CC3)c2)on1 | x | 7
NC(=O)c1sccc1NC(=O)CSCc1ccc(Cl)cc1 | 1.2 | x
CSc1cccc(C(=O)Nc2cc(C)on2)c1 | x | 0
CC1CCc2c(sc(NC(=O)CCN3CCOCC3)c2C#N)C1 (stereo not drawn) | x | 8
CCOC(=O)NC(=S)NN | 12 | x
CC(C)(C)c1cc([N+](=O)[O-])c2cc(C(C)(C)C)cc([N+](=O)[O-])c2c1 | -1.7 | x
CC(C)c1ccc(/C=N/NC(=O)N/N=C/c2ccc(C(C)C)cc2)cc1 | -0.9 | x
CCOC(=O)c1cc(C)n(-c2ccc(Cl)cc2)c1C | -0.7 | x
O=C(CSc1nc2ccc(NC(=O)c3ccccc3F)cc2s1)NC1CC1 | -2.9 | 6
CC(C)(C)NC(=S)Nc1cccc(Cl)c1 | -0.2 | 10
CCC(NC(=O)c1ccccc1NC(=O)c1ccco1)C(=O)NC1CCCCC1 (stereo not drawn) | -1.6 | 3
FC(F)(F)c1cc(Br)ccc1N=Cc1ccccc1 | -2.3 | x

Quoted at random: 2 compounds from above
Structure | MgrA-DNA mod | S aureus helic
CCOC(=O)c1cc(C)n(-c2ccc(Cl)cc2)c1C | -0.7 | x
CSc1cccc(C(=O)Nc2cc(C)on2)c1 | x | 0

Screening data: PubChem, ICCB-Longwood Screening Facility, Harvard Medical School
